# Bioassay records: PubChem BioAssay, National Center for Advancing Translational Sciences (NCATS)
# EPAC2 ant val = Validation qHTS for antagonist of cAMP-regulated guanine nucleotide exchange factor 4 (EPAC2). Rap guanine nucleotide exchange factor 4 (Homo sapiens), Q8WZA2. EPAC2 Rap1B BODIPY-GDP exchange, fluorescence. AID 1645886, 2021. Potency, µM (doses to about 112 µM), inactives show at the top dose activity, negative = inhibition, hits mostly inhibitors. 1.7% of 16,000 active; active = well fitted inhibition curve with a large enough effect; inconclusive = small, poorly fitted or top-dose-only effect; inactive = no such curve, though single readings can be large or run the other way;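 also: 100% = activation by cAMP agonist control; nearly all actives have a fitted effect of over 40% in size; the record reuses the description of the EPAC1 agonist screen; inactives centre near -10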
# Target sequence (Q8WZA2 whole entry, looked up): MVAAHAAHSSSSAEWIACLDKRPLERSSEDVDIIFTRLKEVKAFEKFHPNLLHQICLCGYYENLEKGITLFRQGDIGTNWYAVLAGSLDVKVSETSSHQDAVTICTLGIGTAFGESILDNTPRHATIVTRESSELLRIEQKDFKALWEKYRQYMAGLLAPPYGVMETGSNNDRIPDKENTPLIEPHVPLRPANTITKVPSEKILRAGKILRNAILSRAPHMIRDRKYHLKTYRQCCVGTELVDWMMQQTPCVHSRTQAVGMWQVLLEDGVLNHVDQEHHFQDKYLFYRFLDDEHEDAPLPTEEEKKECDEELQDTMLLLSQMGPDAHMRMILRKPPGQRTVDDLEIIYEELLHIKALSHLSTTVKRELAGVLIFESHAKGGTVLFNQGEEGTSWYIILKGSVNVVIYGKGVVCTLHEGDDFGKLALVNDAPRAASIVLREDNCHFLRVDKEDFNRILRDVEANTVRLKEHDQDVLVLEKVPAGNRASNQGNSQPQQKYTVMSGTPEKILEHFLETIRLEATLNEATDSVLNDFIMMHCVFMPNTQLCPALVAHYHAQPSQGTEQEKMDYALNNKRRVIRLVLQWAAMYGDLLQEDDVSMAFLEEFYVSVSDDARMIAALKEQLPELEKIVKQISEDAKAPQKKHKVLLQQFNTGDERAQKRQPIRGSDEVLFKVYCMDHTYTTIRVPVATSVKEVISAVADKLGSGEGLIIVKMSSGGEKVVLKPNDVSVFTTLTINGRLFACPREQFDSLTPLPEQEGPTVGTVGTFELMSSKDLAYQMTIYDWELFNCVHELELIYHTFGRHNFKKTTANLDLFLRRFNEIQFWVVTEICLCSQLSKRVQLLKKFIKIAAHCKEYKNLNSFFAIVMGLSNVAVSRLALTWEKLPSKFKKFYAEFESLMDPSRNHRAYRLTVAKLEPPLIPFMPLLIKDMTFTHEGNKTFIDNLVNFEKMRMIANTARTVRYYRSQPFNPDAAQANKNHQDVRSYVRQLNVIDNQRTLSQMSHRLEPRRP
#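 Fluorescent exchange read-out: 100 nM EPAC2 with 250 nM RAP1B–BODIPY-GDP and 50 uM GDP; BODIPY-GDP release lowers fluorescence. Read at 480/540 nm every 5 min for 30 min at room temperature; normalized to 6.5 mM cAMP.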
# Numbers without * were called inactive; ? = inconclusive; & = joins results of further samples; [ ] = dose if it differs, or a comment. Potency is read from the fitted curve at half-maximal effect. Not all compounds are listed. The share of hits here may be higher or lower than overall.
compound | EPAC2 ant val
CSc1cc2c(cc1C(F)(F)F)N(C(=O)Nc1cccnc1)CC2 | -16%
CCOC(=O)CN(C)C(=O)c1cnn(-c2ncc3c(n2)-c2ccccc2CCC3)c1C | ?
C=C1[C@@H]2CC[C@@H](C2)C1(C)C | 1%
COc1ccc(C(=O)N2CCC3(CC2)CCN(C(c2ccccc2)c2ccccc2)CC3)cc1 | -27%
Cc1ccc(S(=O)(=O)NC(=O)N[C@@H](C)Cc2ccccc2)cc1 | -4%
Cc1c(N(C)CS(=O)(=O)O)c(=O)n(-c2ccccc2)n1C | -13%[56.6 µM]
CC(C)=CCCC1(C)C=Cc2c(O)c3c(c(CC=C(C)C)c2O1)OC12C(=CCCC1C(C)(C)O[C@@]2(C/C=C(\C)C(=O)O)C(=O)O)C3=O (some centres undefined) | -23%
CCCCC[C@H](O)/C=C/C1=C(CCCCCCC(=O)O)C(=O)CC1 | 3%[11.4 µM]
COc1ncc2nc(C)c(=O)n(C)c2n1 | -9%
CN1CCN(CCc2ccc(Cl)c(Cl)c2)CC1 | -17%
O=C(O[C@H]1[C@H](Cc2ccccc2)NS(=O)(=O)[C@H]2C[C@@H]3C=C[C@]12O3)c1ccccc1Br | ?
Cc1noc(C)c1C(=O)N1CCC2(CC1)CCN(C(c1ccccc1)c1ccccc1)CC2 | -30%
CN1CCN(c2ncc3nc(-c4cn(C)c5ccccc45)c(=O)n(Cc4cccs4)c3n2)CC1 | -17%
COC(=O)C1=C(C)NC(C)=C([N+](=O)[O-])[C@H]1c1ccccc1C(F)(F)F | 50µM*
CN1CCN(c2ccnc(-c3cccc(NS(C)(=O)=O)c3)n2)CC1 | -16%

# The final two records of the section above come first, to join the parts:
compound | EPAC2 ant val
COC(=O)C1=C(C)NC(C)=C([N+](=O)[O-])[C@H]1c1ccccc1C(F)(F)F | 50µM*
CN1CCN(c2ccnc(-c3cccc(NS(C)(=O)=O)c3)n2)CC1 | -16%
C[N+]1(C)C2CC(OC(=O)C(CO)c3ccccc3)CC1C1OC12 (centres undefined) | -5%
CC1(C)OC(=O)C=C[C@@]2(C)C1C[C@@H](O)[C@]1(C)C2CC[C@@]2(C)C(c3ccoc3)OC(=O)[C@H]3O[C@]321 (some centres undefined) | 3%
O=C(O)C1(O)C[C@H](O)C(O)[C@@H](O)C1 (some centres undefined) | -20%
C=C[C@@H]1c2cc(C)ccc2N(S(=O)(=O)c2ccc(C)cc2)[C@H](c2ccc(C(=O)OC)cc2)C1(C#N)C#N | 1%
COc1cccc(CN2CCC3(CCC(CNC(=O)c4ccco4)O3)CC2)c1OC (centres undefined) | 3%
CCCCCCc1ccc(N2C[C@H](Cc3ccccc3)[C@@H](CC(=O)Nc3ccccc3)C2=O)cc1 | -16%
Cc1cccc(C(=O)NCC2Cc3cc(F)cc(-c4cnccn4)c3O2)n1 (centres undefined) | ?
Cc1c(C(=O)NC2CCCCCC2)sc2ncnc(NCC3CCCO3)c12 (centres undefined) | -7%
CNC(=O)Oc1ccc2c(c1)[C@]1(C)CCN(C)[C@@H]1N2C | -15%&-13%
CC(=O)N1CCC[C@H]1C(=O)NCC1Cc2cc(F)cc(-c3ccc(F)c(C)c3)c2O1 (some centres undefined) | -9%
Oc1ccccc1C=NCc1ccccc1 | ?
C[C@]12C[C@H](O)CC(CO)(CO)C1[C@H](O)C[C@@]13CC4[C@@H](CC12)[C@@]4(C)C3 (some centres undefined) | 16%
O=C(O)C1(O)CC(O)C(O)C(O)C1 (centres undefined) | 13%
COc1cccc(Nc2ncc3nc(-c4cc(F)cc(F)c4)c(=O)n(CCC#N)c3n2)c1 | ?
CN(CCO)C(=O)c1cn(C2CCN(Cc3cccc(C(F)(F)F)c3)CC2)nn1 | -20%

# Taken from above.
# COc1cccc(CN2CCC3(CCC(CNC(=O)c4ccco4)O3)CC2)c1OC (centres undefined) | EPAC2 ant val: 3%
# O=C(O)C1(O)CC(O)C(O)C(O)C1 (centres undefined) | EPAC2 ant val: 13%

# The listing continues.
compound | EPAC2 ant val
Nc1nc2c(ncn2CCC(CO)CO)c(=O)[nH]1 | 15%
COc1ncc2nc(-c3cc(F)cc(F)c3)c(=O)n(C[C@H]3CCCO3)c2n1 | -15%
CC1OC1P(=O)(O)O (centres undefined) | -11%
CCCCCCCCCCCCCCCC(=O)OC[C@@H](O)[C@H]1OC[C@H](O)[C@H]1O | -1%
COc1ccc(CN2CCOc3c(cc(-c4ncc(C(F)(F)F)cc4Cl)cc3OCC3CCCO3)C2)c(O)c1 (centres undefined) | ?
C=C1[C@@H](O)CN(Cc2ccc(OC)cc2)S1(=O)=O | 20%
O=C(NCCc1nnc2n1CCN(Cc1ccc(F)c(F)c1)CC2)c1ccoc1 | -8%
CN(C)c1ccc(-c2nc(NCc3cccnc3)c3ccccc3n2)cc1 | -18%
Cc1noc(C)c1-c1ccc2ncnc(Nc3ccc(F)cc3)c2c1 | -21%
O=C(c1cc(C(F)(F)F)cc(C(F)(F)F)c1)N1CCC2(CCCN(c3ccccn3)C2)CC1 | ?
COc1cccc(Cn2c(=O)c(-c3cccs3)nc3cnc(N4CCNCC4)nc32)c1 | -46%
O=C(c1ccco1)N1CCC2(CCN(Cc3cc(C(F)(F)F)cc(C(F)(F)F)c3)CC2)CC1 | ?
O=C1N=C(O)CN1/N=C/c1ccc(-c2ccc([N+](=O)[O-])cc2)o1 | -11%&-2%
O=C(Nc1ccc(S(=O)(=O)N2CCOCC2)cc1)c1cc(Cl)ccc1NS(=O)(=O)c1ccc(Cl)s1 | ?
Cc1noc(C)c1-c1nc(Nc2ccncc2)c2ccccc2n1 | -18%
CC(C)C[C@H](NC(=O)[C@H](O)[C@H](N)Cc1ccccc1)C(=O)O | 15%
COC(=O)[C@@H]1CC2=CC(=O)CC[C@]2(C)[C@@]23O[C@@H]2C[C@@]2(C)[C@@H](CC[C@@]24CCC(=O)O4)[C@H]13 | ?
CCCCCC[C@@H](O)C/C=C\CCCCCCCC(=O)O | -11%&10%&-6%
CC(C)CCCC(C)NC(C)C (centres undefined) | 13%
OC[C@H]1O[C@@H](n2cnc3c(NC4CCCCC4)ncnc32)[C@H](O)[C@@H]1O | -11%&-10%
CC/C(=C(/CC)c1ccc(O)cc1)c1ccc(O)cc1 | ?
O=c1c(-c2cc(F)cc(F)c2)nc2cnc(Oc3ccccc3)nc2n1C1CC1 | -14%
CC(N)(COP(=O)(O)O)C(=O)O (centres undefined) | 2%
OCc1cc2c(cn1)[nH]c1ccccc12 | -11%
Cc1c(C(=O)N2CCN(C(C)C)CC2)sc2ncnc(NCc3ccco3)c12 | ?
CC(C)CC(N)C(=O)NC(C)C(=O)O (centres undefined) | -4%
COC(=O)c1cccc(C(=O)N2CCc3c(cnc(C)c3CNC(=O)/C=C/c3cccs3)C2)c1 | -21%
O=C(Nc1cccc(F)c1)N1CC[C@@]2(CCCN(C(=O)c3ccco3)C2)C1 | -14%
CN(C)c1ccc(-c2cc(Nc3ccc(F)cc3)ncn2)cc1 | -26%
COc1ccccc1-c1nc(N(C)C)c2ccccc2n1 | -18%
Cc1cccc(CNc2ncncc2-c2cccc(NS(C)(=O)=O)c2)c1 | -24%
COc1ccc2[nH]cc(CCNc3nc(-c4ccccc4CN(C)C)nc4ccccc34)c2c1 | -4%
O=c1c2ccccc2oc2ccccc12 | -19%
CN(C)CCC=C1c2ccccc2C(C)(C)c2ccccc21 | 5%
COc1ccc(C(=O)N2CCC3(CC2)CCN(c2ccncc2)CC3)cc1 | -17%
O=C(c1cnccn1)N1CCC[C@@]2(CCN(c3ccccn3)C2)C1 | -17%
CC[C@H]1OC(=O)[C@H](C)[C@@H](O[C@H]2C[C@@](C)(OC)[C@@H](O)[C@H](C)O2)[C@H](C)[C@@H](O[C@@H]2O[C@H](C)C[C@H](N(C)C)[C@H]2O)[C@](C)(O)C[C@@H](C)/C(=N\OCOCCOC)[C@H](C)[C@@H](O)[C@]1(C)O | 17%[56.6 µM]
CC(=O)C[C@H]1c2cc(F)ccc2S(=O)(=O)N1c1ccc(N(C)C)cc1 | ?
CC1(C)C[C@@H]2C(=O)CCC3O[C@@]3(C)CCC21 (some centres undefined) | -11%
Cc1ccnc(N)c1 | -21%
Cc1ccc(CN2C[C@@H](Sc3nc(C)cc(C)n3)C[C@H]2C(=O)N2CCN(c3ccccc3F)CC2)cc1 | -1%
NC(=O)CC[C@@H]1NC(=O)[C@H](Cc2ccccc2)NC(=O)[C@H](Cc2ccc(O)cc2)NC(=O)CCSSC[C@@H](C(=O)N2CCC[C@H]2C(=O)N[C@@H](CCCN=C(N)N)C(=O)NCC(N)=O)NC(=O)[C@H](CC(N)=O)NC1=O | -22%&3%
FC(F)(F)c1ccccc1-c1cncnc1NCc1ccccc1 | -24%
Cc1c(Nc2ncccc2C(=O)O)cccc1C(F)(F)F | -12%
CCNC(=O)[C@@H]1CCCN1C(=O)[C@H](CCCN=C(N)N)NC(=O)[C@H](CC(C)C)NC(=O)[C@@H](Cc1c[nH]c2ccccc12)NC(=O)[C@H](Cc1ccc(O)cc1)NC(=O)[C@H](CO)NC(=O)[C@H](Cc1c[nH]c2ccccc12)NC(=O)[C@H](Cc1cnc[nH]1)NC(=O)[C@@H]1CCC(=O)N1 | 2%
COCC(=O)N1CCC2(CCCN(c3ccncc3)C2)CC1 | -21%
COc1ccc(NC(=O)N2CC[C@@]3(CCCN(C(=O)c4cccn4C)C3)C2)cc1 | -11%
O=c1c(-c2ccc(F)cc2)nc2cnc(Nc3ccccc3)nc2n1Cc1cccs1 | ?
O=C1[C@H]2[C@H](C=CC[C@H]2C(=O)N2CCN(c3ccccc3)CC2)CCN1Cc1ccc(Cl)c(Cl)c1 | -5%
CCNc1ncc2nc(-c3cccs3)c(=O)n(C)c2n1 | 15%
COc1ccc(Oc2ncc3nc(-c4ccccc4)c(=O)n(C[C@H]4CCCO4)c3n2)cc1 | -21%
CN(C)C(=O)c1ccc(-c2cncnc2Nc2ccc(F)cc2)cc1 | -9%
N#Cc1cccc(NC(=O)N2CCC3(CC2)CCN(C(=O)c2ccco2)CC3)c1 | ?
CC(C)[C@@H](N)C(=O)O | -3%
COCc1c(C(=O)NC2CCCC2)cnn1-c1nccc(-c2cccs2)n1 | -13%
COc1ncc2nc(-c3ccc(F)cc3)c(=O)n(Cc3ccc(F)cc3)c2n1 | -3%
COC(=O)N1CCC2(CCN(Cc3ccc(C#N)cc3)CC2)CC1 | ?
CCC1(C2CCN(Cc3ccccn3)CC2)NC(=O)N(CC2COc3ccccc3O2)C1=O (centres undefined) | -5%
c1ccc(Nc2ncnc3ccc(-c4cccnc4)cc23)cc1 | -24%
N[C@H]1C(O)O[C@H](CO)[C@@H](O)[C@@H]1O (some centres undefined) | -23%

# Another view of part of the listing above.
COCc1c(C(=O)NC2CCCC2)cnn1-c1nccc(-c2cccs2)n1
  EPAC2 ant val: -13%
COc1ncc2nc(-c3ccc(F)cc3)c(=O)n(Cc3ccc(F)cc3)c2n1
  EPAC2 ant val: -3%
COC(=O)N1CCC2(CCN(Cc3ccc(C#N)cc3)CC2)CC1
  EPAC2 ant val: ?

# Additional compounds:
compound | EPAC2 ant val
COc1ccc(F)c(CN2CCC3(CCC(CNC(=O)c4ccn(C)n4)O3)CC2)c1 (centres undefined) | -4%
O=c1c(-c2ccccc2)nc2cnc(Nc3ccccc3)nc2n1C[C@H]1CCCO1 | -24%
CCCS(=O)(=O)NCc1c(C)ncc2c1CCN(C(=O)c1ccc3[nH]c4c(c3c1)CCCC4)C2 | -29%
C/C=C/c1ccc(OC(C)[C@@H](O)c2ccc(O)c(OC)c2)c(OC)c1 (some centres undefined) | -18%
O=C(Nc1cccc(F)c1)N1CCCC2(CCN(S(=O)(=O)c3ccccc3)CC2)C1 | -20%
O=c1c(-c2ccc(F)c(F)c2)nc2cncnc2n1Cc1ccccc1Cl | ?
COc1ccc(N2C(=O)[C@@H]3C[C@H]2CN3Cc2cccn2-c2ccccn2)cc1Cl | -11%
O=c1c(-c2ccc(F)cc2)nc2cnc(N3CCOCC3)nc2n1Cc1ccc(F)cc1 | -7%
Cn1cc(-c2nc3cnc(Oc4ccccc4)nc3n(Cc3cccs3)c2=O)c2ccccc21 | 5%
Cc1c(C(=O)NCC2(N3CCOCC3)CCCCCC2)cnn1-c1nccc(-c2ccccc2F)n1 | ?
CC(=O)OCC(=O)[C@@]1(O)CC[C@H]2[C@@H]3CCC4=CC(=O)CC[C@]4(C)[C@H]3C(=O)C[C@@]21C | -17%&-10%
CC1(C)CCC2(C(=O)O)CC[C@]3(C)C(=CCC4[C@]5(C)CCC(O)C(C)(C)C5C(O)C[C@]43C)C2C1 (some centres undefined) | -17%
COc1ccc(CN2CCOc3c(O)cc(-c4cc(C)c5ccc(F)cc5n4)cc3C2)c(O)c1 | ?
CC(=O)Oc1ccccc1C(=O)Nc1ncc([N+](=O)[O-])s1 | -8%
CCNc1ncc2nc(-c3ccc(OC)cc3)c(=O)n(-c3ccc(OC)cc3)c2n1 | 1%
Clc1ccccc1-c1ccc2ncnc(NCc3cccnc3)c2c1 | -10%
O=C(Nc1ccccc1)N1CCCC2(CCN(S(=O)(=O)c3ccccc3)CC2)C1 | -39%
O=C(c1ccco1)N1CCC2(CCN(Cc3ccccc3)CC2)CC1 | -26%
O=c1cc(-c2ccccc2O)oc2cc(O)cc(O)c12 | -12%
COc1ccccc1-c1nccc(Nc2ccc(F)cc2)n1 | -14%
